Calb biofilm kill – mixtures killing C. albicans biofilm; C. albicans biofilm persisters + clotrimazole, fluorescence viability; primary screen in compound mixtures of four per well; AID 1242; hit rate 0.02% among 120,000; inhibition, % at 7.6 µM;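 active = inhibition above 30.3% in the primary screen of four-compound pools, then above 30% when the compound was retested; inconclusive = passed the primary limit but could not be retested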;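 also: compounds exposed to preformed 24 h biofilms for 48 h; the number belongs to the whole pool; some results filed as inactive read as strong as hits; inactives centre near 12; 0% = biofilm with clotrimazole alone and 100% = kill control; retested singly at about 60 µM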
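Test system: C. albicans biofilms. Buffer or medium: RPMI/MOPS medium, pH 7.0. Timing: 48 h compound exposure at 37 °C. Technique: Alamar Blue fluorescence. Evaluation: percent inhibition of biofilm viability.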
* marks the source's active call; other numbers are inactive results; ? = inconclusive.

SMILES | Calb biofilm kill
COc1ccc(-c2coc3cc(OC(=O)N4CCOCC4)ccc3c2=O)cc1 | 9
C/C=C/c1ccc(OCCCCNCc2ccco2)c(OC)c1 | 16
Cc1[nH]c2c(C(=O)N3CCCC(CCC(=O)NCc4ccccc4F)C3)cccc2c1C (configuration not stated) | 19
C=CCN1C2CCCC1CC(NC(=S)Nc1ccc(Cl)cc1)C2 (configuration not stated) | 11
Cc1ccc(-c2nc(N)sc2C)cc1 | 11
O=C(COC(=O)c1cccc(S(=O)(=O)NCc2ccccc2)c1)NCC1CCCO1 (configuration not stated) | -1
CCc1cccc2c1NC1(CCCC1)CC2C (configuration not stated) | 18
O=C(NC(=S)N1CCCCC1)c1cccs1 | 6
CCOC(CNC(=O)c1ccc(CNC(=O)c2ccc(OC)c(OC)c2)cc1)OCC | -3
O=C1CCCCC1C(=O)c1ccccc1 (configuration not stated) | ?
COC(=O)/C(=C\Nc1ccc(Cl)cc1Cl)NC(=O)c1ccc(OC)cc1 | 19
O=C(c1c[nH]c(C(=O)N2CCN(c3ccccc3F)CC2)c1)c1cccc(Cl)c1Cl | 14
CC(C)CNS(=O)(=O)c1ccc(OCC(=O)NCC2CCCO2)c(Cl)c1 (configuration not stated) | 2
CC(=O)Nc1ccccc1NC(=O)C/C(C)=N/NC(=O)C(=O)Nc1cccc(Cl)c1C | 9
CCc1ccc2c(c1)C1(SC(NC(C)=O)=NN1C(C)=O)C(=O)N2CC (configuration not stated) | 9
O=C(Nc1ccccc1)OCCCc1ccccc1 | 7
CC(=O)Nc1cccc(-n2nnc(SCC(=O)N(C)c3ccccc3)n2)c1 | 15
CCCCc1nc2ccccc2c(NC(=O)CN2CCCC2)c1CCC | 14
Cc1cccc(N/N=C(\C#N)S(=O)(=O)C(C)(C)C)c1 | 11
Cc1nnc(N/N=C\c2ccc(-c3ccccc3[N+](=O)[O-])o2)n1N | 3
CCOP(=O)(OCC)C(NC(=O)Nc1cccc(Cl)c1)c1ccccc1 (configuration not stated) | 14
CCC(=O)NNc1nc2c(F)cccc2s1 | 7
O=c1/c(=C\c2ccc(O)cc2)sc2nc(-c3ccccc3)c(-c3ccccc3)n12 | 23
CC(=O)N1CCC(=NNc2nc3ccccc3[nH]2)CC1 | 7
COc1ccc(NC(=O)c2[nH]c(C)c(C(C)=O)c2C)cc1 | -18
NNC(=O)COc1ccc(-c2n[nH]c(C(F)(F)F)c2-c2ccc(Br)cc2)c(O)c1 | 10
Nc1cccc(-n2nnnc2CN2CCOCC2)c1 | 12
Cc1nccn1CC(O)Cn1c2ccccc2c2ccccc21 (configuration not stated) | 12
O=C1OCC(c2ccccc2)=C1c1ccccc1[N+](=O)[O-] | 9
Cc1ccc(SCCC(=O)N/N=C/c2ccncc2)cc1 | 12
COc1ccc(Nc2ncnc3ccccc23)c(OC)c1 | 9
Cc1ccc(OCC(=O)OC(C)CN(C)Cc2ccccc2)cc1 (configuration not stated) | 5
CCOC(=O)c1cccc(NC(=O)Nc2ccc3c(c2)C(=O)OC3)c1 | 10
C=CCN(C(=O)Nc1ccc2c(c1)nc(C)n2C)c1ccccc1 | 16
COc1ccc(C2c3ccc(O)cc3Oc3ncn(Cc4ccco4)c(=N)c32)cc1OC (configuration not stated) | 21
COc1ccccc1C(C)NCC(=O)NCC(=O)Nc1ccc(F)c(F)c1F (configuration not stated) | 4
Cc1cccc(-n2c(SCC(=O)N3CC(=O)Nc4ccccc43)nc3ccccc3c2=O)c1C | 6
O=C(CSCc1c(F)cccc1Cl)NCc1ccncc1 | -3
CCC(C)c1ccc(NC(=S)Nc2ccc(OC)c(OC)c2)cc1 (configuration not stated) | 12
CCOC(=O)N/N=C/c1cn(CCCOc2ccccc2)c2ccccc12 | -3
Cc1ccc(CNC(=O)c2ccccc2N(C)S(C)(=O)=O)cc1 | 13
CCc1ccc(NC(=O)COC(=O)/C=C/c2c(C)nn(C3CCS(=O)(=O)C3)c2Cl)cc1 (configuration not stated) | 12
CC(NC(=O)Nc1ccc([N+](=O)[O-])cc1)C(c1cccs1)N1CCCC1 (configuration not stated) | 8
C[C@H](NC(=O)c1nc[nH]c1C(=O)N1CCc2ccccc2C1)C(=O)OCc1ccccc1 | 16
CC1CN=C(N(C(=O)Nc2ccccc2)C(C)c2ccccc2)S1 (configuration not stated) | 26
CN(CCCN1CCOCC1)Cc1cn(C)nc1-c1ccccc1F | 10
CCN(CC(N)=O)S(=O)(=O)c1ccc(F)cc1 | 11
COc1cc(OC)c(OC)cc1/C=C/c1cc(C(F)(F)F)[nH]c(=O)n1 | 20
CC1CCCCC1NC(=O)COC(=O)Cc1ccc(Br)cc1 (configuration not stated) | 9
O=C(NCc1ccc(Cl)cc1)C1CCN(c2cnccn2)CC1 | 5
Continued.
SMILES | Calb biofilm kill
O=C(O)CCC(=O)N1c2ccccc2NC2=C(C(=O)CC(c3ccc(F)cc3)C2)C1c1ccc([N+](=O)[O-])o1 (configuration not stated) | 30
Cc1ccc(O)c(C(CC(=O)N2CCCC2)c2ccccc2)c1 (configuration not stated) | -3
O=[N+]([O-])c1c(Nc2ccc(O)cc2)cc(N2CCOCC2)c2nonc12 | -11
COC(=O)C(C(=O)OC)c1ccc(N)cc1 | -8
Cc1cccc(C)c1NC(=O)NN1C(C)CCCC1C (configuration not stated) | 2
Cc1cc(C)nc(NC2=NCCN2C(=S)Nc2ccc(C)c(C)c2)n1 | 15
Cc1ccc(Sc2ncccc2C(=O)O)c(C)c1 | 21
O=C(O)c1ccc(NC(=S)NC(=O)c2cccc(COc3ccccc3)c2)cc1 | 25
CC(C)(C)C(=O)Nc1ccc(N2CCN(c3ccc(C(F)(F)F)cn3)CC2)nc1 | 21
NS(=O)(=O)c1ccc(NC(=O)CSc2ccccc2)cc1 | 14
O=C(/C=C/c1ccccc1[N+](=O)[O-])N1CCN(c2ccc(F)cc2)CC1 | -1
CCCc1cc(=O)c2c(O)cccc2o1 | 24
Cc1ccc(Cl)cc1NC(=S)N(CCCN1CCOCC1)Cc1ccco1 | -5
Cc1[nH]n(-c2ccc(Cl)cc2)c(=O)c1/C=N/c1nnc(-c2ccccc2)s1 | 3
CC(C)N(CC(N)=O)C(=O)c1sc2cc(F)ccc2c1Cl | 16
Cc1ccc(S(=O)(=O)C2(C(=O)Nc3ccc(Br)cc3)CC2)cc1 | 8
COc1cc(SC)ccc1C(=O)N1CCN(c2ccccc2F)CC1 | 11
Cn1c(=O)c2c(nc3sccn32)n(C)c1=O | 18
COC(=O)NC(=S)N1CCOCC1 | 10
CCCCc1ccc(S(=O)(=O)Nc2ccc(C)c(NS(C)(=O)=O)c2)cc1 | 22
Cc1ccc2nc(SC(C)C(=O)Nc3cccc([N+](=O)[O-])c3)[nH]c2c1 (configuration not stated) | 15
Cc1nn(CC(=O)Nc2cccc(S(N)(=O)=O)c2)c(C)c1[N+](=O)[O-] | 14
CC12CCC(C/C1=N\OC(=O)c1ccc(F)cc1)C2(C)C (configuration not stated) | 8
O=C(NCC1COc2ccccc2O1)c1ccc(NC(=O)C(c2ccccc2)c2ccccc2)cc1 (configuration not stated) | 11
O=C(CS(=O)(=O)c1ccccc1)NC1CCCCC1 | 14
O=C(O)CC12CC3CC(C1)CC(n1ncc(NCc4ccc(F)cc4Cl)c(Cl)c1=O)(C3)C2 | 17
O=C(CNC(=O)c1ccccc1Br)N/N=C/c1ccccc1O | 13
O=C(CSc1ccccc1)Nc1nnc(/C=C/c2ccccc2)s1 | 18
COc1ccc(/C=C/C(=O)C2CC2)cc1COc1cccc(C)c1C | 7
Nc1nc(F)cc(N2CCCCCC2)n1 | 15
CC(C)(C)c1cc(C(=O)N/N=C/c2ccc([N+](=O)[O-])s2)n[nH]1 | 7
CCOc1ccc(S(=O)(=O)Nc2cc(S(=O)(=O)N(CC)CC)ccc2N2CCCC2)cc1 | 2
COC(=O)c1[nH]c(=O)c2ccccc2c1O | 10
Cc1ccc(O)c(C(CC(=O)NC(C)C)c2ccccc2)c1 (configuration not stated) | -6
CC(C)Nc1nc2nonc2nc1Nc1ccccc1 | 14
CO/N=C/C1C(=O)NN=C1c1ccccc1 (configuration not stated) | 8
COc1ccc(Cl)cc1NC(=S)N1CCN(c2ncccn2)CC1 | 4
CCc1nc2sc3c(=O)[nH]cnc3c2c2c1CSC(C)(C)C2 | 31
CCCCN(CC)C(=O)c1ccc2c(c1)OCO2 | -9
COC(=O)C1=C(C)N(c2ccc(C)c(C)c2)/C(=C/c2ccco2)C1=O | 20
Cc1ccc(/C=C(\NC(=O)c2ccc(C)cc2)C(=O)NCCCn2ccnc2)cc1 | 9
O=C(NCC(=O)N(c1ccccc1)C(C(=O)NC1CCCC1)c1cccnc1)c1ccco1 (configuration not stated) | 14
O=C(N/N=C/c1ccccc1)c1cc(-c2ccc3c(c2)OCO3)n[nH]1 | -13
COc1ccc(Cn2c(=S)[nH]c3cc(C(=O)NCc4cccnc4)ccc3c2=O)cc1 | 8
CC1=C(C(=O)OC(C)C)C(c2cccs2)NC(=S)N1 (configuration not stated) | 17
O=c1ccc2cc(O)c(O)cc2o1 | 11
COc1cc(S(=O)(=O)Nc2ccccc2)ccc1N=Cc1c(C)[nH]n(-c2ccc(C)cc2)c1=O | 2
COc1ccc(Cl)cc1NC(=S)NNC(=O)CC(C)C | 20
COCCCNC(=S)N1CCN(c2ccc([N+](=O)[O-])cc2)CC1 | 11
Cc1c(O)nc2ccccn2c1=O | 20
Other structures
SMILES | Calb biofilm kill
CCCCC(=O)N(Cc1ccc2c(c1)OCO2)Cc1nc2ccccc2c(=O)[nH]1 | 13
O=C(N/C=C/c1ccco1)OCc1ccccc1 | -32
Cc1cccc(N=C2NC(=O)S/C2=C\c2ccco2)c1 | 11
C/C(=N\OC(=O)c1ccc(Br)cc1)c1ccccn1 | -7
CCCc1nnc(NC(=O)C(=O)NCCN(C)C)s1 | 15
c1ccc(-n2nnnc2-c2cnc(-c3cccnc3)nc2-c2cccs2)cc1 | 18
CN(Cc1ccccc1)C(=O)COC(=O)C1=NNC(=O)CC1 | 15
CS(=O)(=O)Nc1nnc(C2CCCC2)s1 | 25
CC(C)Cn1c(N)c(C(=O)COC(=O)c2cc(C3CC3)nc3ccccc23)c(=O)n(C)c1=O | 1
COc1cc2c(cc1NC(=O)COC(=O)/C=C/c1ccc([N+](=O)[O-])cc1)oc1ccccc12 | 21
COc1cc(S(=O)(=O)Nc2ccccc2C)ccc1NC(=O)c1ccncc1 | -3
COCCNC(=S)N1CCC(NC(=O)c2ccco2)CC1 | 5
CCn1cc(C(=O)OC)c(=O)c2cc(S(=O)(=O)N(C)C3CCCCC3)ccc21 | 29
CN(C)S(=O)(=O)c1cc(NC(=O)[C@H](Cc2ccccc2)N2C(=O)c3ccccc3C2=O)ccc1Cl | 5
COc1ccc(C(=O)CSc2nnc(CN3CCCC3)n2-c2ccc(F)cc2)c(OC)c1 | 11
Cn1c(SCC(=O)N/N=C/c2ccc([N+](=O)[O-])s2)nnc1-c1ccc(Cl)cc1 | 1
O=C(Nc1ccc2c3c(cccc13)CC2)c1cccc([N+](=O)[O-])c1 | 23
C=CCNC(=O)NC(=O)COC(=O)c1nc2nccc(C)n2n1 | -8
COc1ccc(NC(=O)C(=O)NCCN2CCN(C(=O)c3ccco3)CC2)cc1 | 15
CN(Cc1nccs1)C(=O)CC1C(=O)NCCN1Cc1ccc(-c2ccccc2)cc1 (configuration not stated) | 21

Some values from above:
CN(C)S(=O)(=O)c1cc(NC(=O)[C@H](Cc2ccccc2)N2C(=O)c3ccccc3C2=O)ccc1Cl – Calb biofilm kill = 5
O=C(Nc1ccc2c3c(cccc13)CC2)c1cccc([N+](=O)[O-])c1 – Calb biofilm kill = 23
C=CCNC(=O)NC(=O)COC(=O)c1nc2nccc(C)n2n1 – Calb biofilm kill = -8

Continuation:
SMILES | Calb biofilm kill
CC(C)NC(=O)c1ccc2c3n(nc2c1)-c1ccccc1CO3 | 1
CC(C)(C)c1ccc(/C=N/NC(=S)NCc2ccccc2)cc1 | 4
CC1=NN(C(=O)COc2ccc(C)c(C)c2)C(O)(c2ccccc2)C1 (configuration not stated) | 19
C/C(CC(=O)Nc1ccccn1)=N\NC(=O)c1cccc(C)c1 | 19
Cc1ccc(NC(=O)C2c3ccccc3Oc3ccccc32)nc1 | 18
COC(=O)c1scc(S(=O)(=O)C(C)(C)C)c1N | 15
Oc1ccc(-c2[nH]ncc2-c2nc3ccccc3s2)c(O)c1 | 15
COC(C[C@H]1O[C@H]1[C@H](O)[C@@H](C)OCc1ccccc1)OC | 20
COc1cc(C(N)=O)cc(Cl)c1OCc1ccccc1 | 10
O=C(C1=NN(c2ccccc2)C2C(=O)N(c3ccc(Cl)cc3)C(=O)C12)c1ccccc1 (configuration not stated) | 12
Cc1cccc(NC(=S)N2CCC(C(N)=O)(N3CCCCC3)CC2)c1C | 14
COc1ccccc1NC(=O)NCCCl | -8

Among those listed so far, ten have two or more sulfur atoms.
SMILES | Calb biofilm kill
O=C(NC(=S)N1CCCCC1)c1cccs1 | 6
NS(=O)(=O)c1ccc(NC(=O)CSc2ccccc2)cc1 | 14
CCCCc1ccc(S(=O)(=O)Nc2ccc(C)c(NS(C)(=O)=O)c2)cc1 | 22
O=C(CSc1ccccc1)Nc1nnc(/C=C/c2ccccc2)s1 | 18
CCOc1ccc(S(=O)(=O)Nc2cc(S(=O)(=O)N(CC)CC)ccc2N2CCCC2)cc1 | 2
CCc1nc2sc3c(=O)[nH]cnc3c2c2c1CSC(C)(C)C2 | 31
CC1=C(C(=O)OC(C)C)C(c2cccs2)NC(=S)N1 (configuration not stated) | 17
CS(=O)(=O)Nc1nnc(C2CCCC2)s1 | 25
Cn1c(SCC(=O)N/N=C/c2ccc([N+](=O)[O-])s2)nnc1-c1ccc(Cl)cc1 | 1
COC(=O)c1scc(S(=O)(=O)C(C)(C)C)c1N | 15

Screens: PubChem BioAssay, PCMD

An excerpt, so the mix of outcomes need not match the whole.
